Screening results as filed in PubChem BioAssay.
VDR inhibitor – inhibitors of human vitamin D receptor | 0.93% of 400,000 active | P11473 | Potency, µM, inactives show max response, negative = inhibition, usual class: inhibitors | VDR-SRC2-3 peptide fluorescence polarization, 2 h; active means well fitted inhibition curve with a large enough effect; inconclusive means small, poorly fitted or top-dose-only effect, or another doubt; inactive means no such curve, though single readings can be large or run the other way; further: series mostly up to about 120 µM
Target sequence (P11473 whole entry, looked up): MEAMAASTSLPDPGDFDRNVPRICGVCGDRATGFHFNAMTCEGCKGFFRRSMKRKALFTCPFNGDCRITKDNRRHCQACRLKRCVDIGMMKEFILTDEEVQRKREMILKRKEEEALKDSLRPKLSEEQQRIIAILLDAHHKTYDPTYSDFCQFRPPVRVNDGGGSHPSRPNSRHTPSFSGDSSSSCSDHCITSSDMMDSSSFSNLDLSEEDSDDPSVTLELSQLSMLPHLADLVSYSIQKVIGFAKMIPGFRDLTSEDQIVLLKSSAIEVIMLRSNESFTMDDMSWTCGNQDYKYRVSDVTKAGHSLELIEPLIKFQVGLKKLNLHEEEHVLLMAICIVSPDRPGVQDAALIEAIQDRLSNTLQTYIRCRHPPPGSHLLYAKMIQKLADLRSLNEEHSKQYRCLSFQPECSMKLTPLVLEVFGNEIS
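Two reagent solutions held at 4 deg C in the dark were dispensed, compounds pinned at 23 nl, and the mixture incubated 2 h at room temperature. Read-out: fluorescence polarization of VDR–SRC2-3 peptide binding.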
The depositor's hits bear a star; ? = inconclusive; & = joins results of further samples; [ ] = remark or other dose. On the % scale 0 is the no-effect control and ±100 the full control effect; potency means the concentration at half of the fitted maximal effect. Only part of the results is shown (hit frequency here may not be typical).

SMILES	VDR inhibitor
COc1ccc(-c2noc(CN(C(=O)COc3cc(C)c(Br)c(C)c3)C(C)C)n2)cc1	-1%
Cc1cc(OCC(=O)OCC(=O)N(C)Cc2ccccc2C)ccc1Cl	3%
C/C(=N/NC(=O)CNc1ccc(C)cc1)c1ccc(Cl)cc1	-2%
COc1cc(SC)ccc1C(=O)N1CCC(Cc2ccccc2)CC1	?
Cc1cc2nc3ccc(=[N+](C)C)cc-3sc2cc1N	?
O=C(NCc1cccc(Cl)c1)c1cccc(S(=O)(=O)N2CCCCC2)c1	7%
Cc1ccc(N=C2N=C(N)c3ccccc32)c(C)c1	2%
CCCC(=O)Nc1nnc(/C=C/c2ccccc2)s1	12%
O=C(Cn1cc(S(=O)(=O)c2ccccc2)c(=O)c2cc3c(cc21)OCO3)Nc1ccccc1	1%
C#CCOc1c(Br)cc(/C=C2/C(=O)ON=C2C)cc1OC	?
CC(Sc1nnc(C(C)Oc2ccccc2F)o1)C(=O)NCc1ccc2c(c1)OCO2 (stereo not given)	-12%
Cc1ccc(NCC(O)C(O)C(O)CO)c(N=Nc2ccccc2)c1C (stereo not given)	0%
COc1ccccc1OCc1cc(-c2ccccc2)no1	-18%
CCc1ccc(OCCNC(=O)c2cc(SC)ccc2Cl)cc1	6%
O=C(NNC(=O)C12CC3CC(CC(C3)C1)C2)c1cccc(O)c1	4%
Cc1ccc(Sc2ccc(N)cc2C#N)cc1	12%
CC1=CC(C)(C)n2c(O)c(N=NC(N)=S)c3c(C)ccc1c32	-15%
C=CCNc1nc(Cl)nc(Nc2ccc(OC)cc2OC)n1	7%
COc1ccc(-c2c(C(F)(F)F)nn(C)c2NC(C)=O)cc1	10%
CCc1cccc(C)c1NC(=O)Cc1ccsc1	-12%
Cc1c(Cl)cccc1NC(=O)c1ccc2snnc2c1	8%
Cc1ccc2c(N)[nH]nc2n1	-4%
Cc1ccc(OCC(=O)NCC2(N3CCN(C)CC3)CCCCC2)cc1	5%
CCCn1c2c(c(=N)c3c1CCC3)CCC2	-17%
CCCCCn1c(Br)nc2c1c(=O)n(CC(N)=O)c(=O)n2C	17%
CCCCNC(=O)/C(C#N)=C/c1ccc(F)cc1F	?
CCc1ccc(-n2c(C)cc(/C=N/NC(=O)c3ccncc3)c2C)cc1	26%
Cc1cccc(-c2nsc(SCC(=O)Nc3cc(C)on3)n2)c1	10%
COc1ccc(CNC(=O)C2CCC(=O)N2C(C)C)c(OC)c1 (stereo not given)	-6%
CCCn1c(SCC(=O)Nc2ccccc2Cl)n[nH]c1=O	-4%
CCOC(=O)c1sc(NC(=O)COC(=O)C(CCSC)NC(C)=O)nc1C (stereo not given)	-20%
CCn1c(=O)cc(OCC(=O)Nc2cc(Cl)c(OC)cc2OC)c2ccccc21	?
C/C(=N\Nc1nc(N)cc(Cl)n1)c1cccc(N)c1	12%
COc1ccc(S(=O)(=O)NCCc2csc(-c3ccc(F)cc3)n2)cc1F	10%
CCOC(=O)C1C(=O)NC(SCC(=O)Nc2nccs2)=C(C#N)C1c1ccccc1OCC (stereo not given)	35µM*
CCOc1ccc(C)cc1S(=O)(=O)N1CCCCC1	13%
C#CCn1c(=NC(=O)CN2C(=O)CCC2=O)sc2cccc(OC)c21	6%
CN1CCN(CCCOc2ccc(-c3ccccc3)cc2)CC1	-19%
Cc1cc(C)c2c(-n3cccc3)c(C(=O)NNS(=O)(=O)c3ccc(Br)cc3)sc2n1	5%
NS(=O)(=O)c1ccc(Nc2nc(-c3ccc(O)cc3)cs2)cc1	1%
CCOc1ccccc1NC(=O)C1CCCN(S(=O)(=O)c2ccc(OC)c(C)c2)C1 (stereo not given)	-2%
COc1ccc(-c2nc(N3CCOCC3)nc3n[nH]c(N)c23)cc1	5%
CCOc1ncccc1C(=O)Nc1ccc(F)c(F)c1	-3%
COc1cc(-c2nnc(SCc3cc(=O)oc4cc(C)ccc34)o2)cc(OC)c1OC	1%
CN1C2=NCCN2C(=O)c2ccccc21	-7%
Cn1c(SCc2nnc(-c3ccc(F)cc3)o2)nnc1C1COc2ccccc2O1 (stereo not given)	2%
CC(=O)NC(CC(=O)O)c1ccccc1 (stereo not given)	-7%
NC(=O)c1c(NC(=O)C2CCCO2)sc2c1CCCCC2 (stereo not given)	?
O=S(=O)(NCC(c1ccc2c(c1)OCO2)N1CCN(c2ccccc2)CC1)c1ccccc1 (stereo not given)	-8%
Cc1ccc2cc3cc(C(=O)NCCC(C)C)oc3nc2c1	-1%
CCCCc1c(O)nc(SCC(=O)NCCc2ccc(OC)c(OC)c2)[nH]c1=O	-3%
O=C(Cc1cccc(NC(=O)C2CCN(C(=O)CCc3ccccc3)CC2)c1)Nc1cccc(C(=O)N2CCOCC2)c1	-8%
COc1ccc(-n2nc(C(=O)Nc3ccc(OC)c(OC)c3)c3c4ccccc4n(C)c3c2=O)cc1	11%
O=C(CSc1nc2c([nH]c3ccccc32)c(=O)n1-c1ccccc1)N1CCCc2ccccc21	-3%
Cc1ccc(O)c(C(CCN(C(C)C)C(C)C)c2ccccc2)c1 (stereo not given)	-4%
Cc1c(OCC(=O)NC2CC(C)(C)NC(C)(C)C2)ccc2c1oc(=O)c1ccccc12	-16%
CCOc1ccccc1C1N(c2ccc(OC)cc2)C(=O)C2CCCN21 (stereo not given)	-15%
Cc1ccc(C)c(OCCn2cc(C(=O)c3ccco3)c3ccccc32)c1	-3%
O=C(CC(=O)Nc1nc(C23CC4CC(CC(C4)C2)C3)cs1)NCCO	-11%
O=[N+]([O-])c1cccc(-c2nnc3ccccn23)c1	20%

Look-ups from the entries so far:
In VDR inhibitor, `COc1ccc(-n2nc(C(=O)Nc3ccc(OC)c(OC)c3)c3c4ccccc4n(C)c3c2=O)cc1` is entered as 11%
In VDR inhibitor, `O=C(Cc1cccc(NC(=O)C2CCN(C(=O)CCc3ccccc3)CC2)c1)Nc1cccc(C(=O)N2CCOCC2)c1` is entered as -8%
In VDR inhibitor, `O=[N+]([O-])c1cccc(-c2nnc3ccccn23)c1` is entered as 20%
In VDR inhibitor, `CCOc1ccccc1C1N(c2ccc(OC)cc2)C(=O)C2CCCN21` (stereo not given) is entered as -15%

Fetched by structure from the list above, 5 records:
SMILES	VDR inhibitor
O=[N+]([O-])c1cccc(-c2nnc3ccccn23)c1	20%
O=C(CC(=O)Nc1nc(C23CC4CC(CC(C4)C2)C3)cs1)NCCO	-11%
Cc1c(OCC(=O)NC2CC(C)(C)NC(C)(C)C2)ccc2c1oc(=O)c1ccccc12	-16%
Cc1ccc2cc3cc(C(=O)NCCC(C)C)oc3nc2c1	-1%
O=C(CSc1nc2c([nH]c3ccccc32)c(=O)n1-c1ccccc1)N1CCCc2ccccc21	-3%

(listing goes on)
SMILES	VDR inhibitor
Cc1nc(-c2cc(C#N)c(Sc3cccc(C(F)(F)F)c3)nc2C)cs1	0%
O=C(NN=C1CCCC1)c1cccc(O)c1	-5%
N=C(CC(O)COc1ccccc1-c1ccccc1)N1CCCCC1 (stereo not given)	31%&-4%[activator]
Cc1ccc(-c2nc(N3CCOCC3)sc2C(=O)N2CCOCC2)cc1	0%
CC(C)CN(C(=O)COC(=O)c1ccccc1NCc1ccco1)c1c(N)n(Cc2ccccc2)c(=O)[nH]c1=O	-15%
CC(C)OP(=O)(c1ccc(N(C)C)cc1)C(Nc1ccccc1)c1cccnc1 (stereo not given)	-7%
CCCC(Oc1ccc(Br)cc1)c1nc2c3cc(OC)c(OC)cc3nc(=S)n2[nH]1 (stereo not given)	-3%
NC(CSC(c1ccccc1)(c1ccccc1)c1cccc2ccccc12)C(=O)O (stereo not given)	?
COc1cc(=O)[nH]c(SCc2c(F)c(F)c(F)c(F)c2F)n1	6%
COc1ccc(C(=O)NC(=S)Nc2ccc3c(c2)Cc2ccccc2-3)cc1	-8%
O=C(c1ccc2c(c1)N(Cc1ccccc1F)C(=O)c1ccccc1S2(=O)=O)N1CCCC1	10%&-16%
COc1ccccc1CNC(=O)c1ccccc1NS(C)(=O)=O	-4%
C(=Cc1cccnc1)c1ccncc1	16%
Cc1cccc(NC(=O)CCCCC(=O)Nc2cccc(C)c2)c1	7%
Cc1nc2cc(NCc3nc4ccccc4n3Cc3ccccc3)ccc2n1C	4%
O=C(Nc1ccc(Cl)c(Cl)c1)N1CCSC1c1ccco1 (stereo not given)	-9%
CC1CCCC(C)N1C(=O)COC(=O)CNC(=O)c1ccc(Cl)cc1Cl (stereo not given)	15%
COc1cccc(NC(=O)Nc2cccc(-c3cn4cccnc4n3)c2)c1	5%
O=C(NCc1ccc(F)cc1)C1CCCN1C(=O)NCc1ccccc1 (stereo not given)	3%
CCOC(=O)N1CCN(c2cc(NCCC(=O)O)c3c4c(onc24)-c2ccccc2C3=O)CC1	?
Cc1ccccc1OCCCN1C(=O)C(=O)c2cccc(C)c21	32µM*
CCOC(=O)c1c(NC(=O)c2cccs2)sc2c1CCC2	-11%
CN(c1ccccc1)S(=O)(=O)c1cccc(NC(=O)Cc2n[nH]c(=O)c3ccccc23)c1	15%
Cc1nc2sccn2c(=O)c1S(=O)(=O)N1CCN(c2ccc(F)cc2)CC1	-17%&14%
COc1ccc(C(=O)NC(=S)Nc2ccc3oc(=O)ccc3c2)cc1[N+](=O)[O-]	-1%
COc1ccc(C)cc1NC(=O)CCCNC(=O)Cn1cnc2sc(C)c(C)c2c1=O	?
COc1ccc(OC)c(/C=C2\SC(=S)N(Cc3cccnc3)C2=O)c1	-9%
Cc1ccc(Nc2nc(C(N)=O)c(NC(=O)c3ccccc3Br)s2)cc1	-3%
CCOC(=O)C1CCN(C(=O)Nc2ccc3snnc3c2)CC1	-7%
Fc1cccc(CO/N=C/c2c(-c3ccccc3)nc3ccc(Cl)cn23)c1	-14%
Cc1ccccc1C(=O)NC(=S)Nc1ccccc1C(F)(F)F	15%
CCN(CCCNC(=O)Cn1ncc2c([nH]c3ccc(C)cc32)c1=O)c1ccccc1	-12%&17%
COc1cccc(-c2ccnc3c(-c4ccc(F)cc4)c(C)nn23)c1	-12%
CCCS(=O)(=O)N1CCCC(C(=O)Nc2ccc3c(c2)CCC3)C1 (stereo not given)	-8%
O=C(NNC(=S)NC1CC2C=CC1C2)c1cccnc1 (stereo not given)	10%
CCCNc1nc2c(c(=O)[nH]c(=O)n2C)n1Cc1cccc(Br)c1	8%
CC(Oc1cccc(Cl)c1)C(=O)NNC(=O)c1cccnc1 (stereo not given)	-8%
CCn1c(CSc2nnc(-c3ccc4c(c3)OCO4)o2)nc2cc(S(=O)(=O)N(C)C)ccc21	14%
CCc1ccc(/C=C2/SC(N3CCOCC3)=NC2=O)cc1	7%
CC(C)CN1CCC2(CC1)CCN(C(=O)c1cc(C(F)(F)F)cc(C(F)(F)F)c1)CC2	7%
Cc1ccc(-n2cc(C(=O)c3ccc4ccccc4c3O)cn2)cc1	24%
O=C1c2ccccc2-c2c1cccc2C(=O)N1CCOCC1	16%
Cc1cccc(NC(=O)c2cccc(NS(=O)(=O)c3ccc(Cl)cc3)c2)c1	0%
O=C(Nc1ccccc1)OCC(CN1CCCCC1)OC(=O)Nc1ccccc1 (stereo not given)	14%&-1%
NC(=O)Nc1ccc2c(c1)OCCO2	-7%
FC(F)(F)c1cc(Cl)c2nnc(-c3cccnc3)n2c1	16%
COC(=O)c1ccccc1NC(=O)CN(CCc1ccccc1)S(C)(=O)=O	-14%
COC(=O)c1ccccc1NC(=O)c1noc2c1CCC2	17%
CCOc1ccc(-c2nnc(SCC(=O)NCCc3ccccc3)nc2-c2ccc(OCC)cc2)cc1	13%
COc1ccc(CCNC(=O)c2nn(C)c3c2CSc2ccccc2-3)cc1OC	6%
O=C(Nc1ccc(F)cc1)c1ccc2c(=O)n3c(nc2c1)CCCCC3	8%&2%
O=C(NCc1ccccc1)C(=O)NCC1OCCN1S(=O)(=O)c1cccs1 (stereo not given)	-1%
COCc1nc2sc(C)c(C)c2c(=O)[nH]1	7%
O=C(Cc1ccc(Cl)cc1)NCCCn1ccnc1	3%
CCN(CC)c1ccc(NC(=O)CCCOc2cccc(C)c2)cc1	3%
CCc1ccc(CNC(=O)CN2C(=O)c3cccnc3Oc3ccc(C)cc32)cc1	12%
Cc1cc(NC(=O)Cn2cc([N+](=O)[O-])cn2)n(Cc2ccc(F)cc2)n1	-20%
CC(Oc1ccccc1F)c1nnc(SCC(=O)N(c2ccccc2)C2CCS(=O)(=O)C2)o1 (stereo not given)	-1%
O=C(CSc1ncccc1C(=O)O)NC1CCCCC1	-5%
Cc1nn(C(C)c2nc(-c3ccccc3)no2)c(C)c1[N+](=O)[O-] (stereo not given)	26%

(continued)
SMILES	VDR inhibitor
COc1ccc(/C=C/C(=O)OCC(=O)Nc2ncc(Cl)cc2Cl)cc1	-2%
O=C(CCNS(=O)(=O)c1cccc2nonc12)NCCc1ccc(Cl)cc1	4%
Cc1nc(Nc2ccc(S(N)(=O)=O)cc2)oc1C	-10%
O=C(CCN1CCN(Cc2ccccc2)CC1)NNC(=O)Nc1cccc(C(F)(F)F)c1	-11%
CCN(c1ccc(NC(=O)COC(=O)C(C)N=C2NS(=O)(=O)c3ccccc32)cc1)C(C)C (stereo not given)	15%
O=C(Nc1cc(Sc2ccccn2)cc([N+](=O)[O-])c1)c1cccc(Cl)c1	12%
O=C(OCc1ccc(F)cc1)c1cc(=O)c2ccccc2o1	-9%
Cc1cc(C)cc(NC(=O)CN2C(=O)c3ccccc3Sc3ccc(C(=O)N4CCCC4)cc32)c1	3%
CCCN(CCC)C(=O)CC(c1ccccc1)c1cc(Br)ccc1O (stereo not given)	7%
CC(=O)c1ccc(NC(=O)CCCC(=O)c2ccccc2)cc1	1%
FC(F)(F)c1cccc(CNC(=S)Nc2ccccc2)c1	-23%
OC(COc1ccccc1F)CN1CCC(Cc2ccccc2)CC1 (stereo not given)	-13%
COCCCNC(=O)C1CCC(=O)N1Cc1ccccc1Cl (stereo not given)	4%
O=C(CSc1nnc(NC(=O)c2ccccc2[N+](=O)[O-])s1)NCc1ccco1	14%
COc1ccc(OC)c(NC(=S)NCCC(c2ccccc2)c2ccccc2)c1	-12%
NC(=O)C1CCN(C(=S)NCCc2ccccc2)CC1	4%
